AID504770 – E. coli YBA685 growth inhibition, screen for V. cholerae RctB inhibitors; E. coli YBA685 rctB-dependent plasmid, OD600 growth, 3 h; stronger effect = lower value; z-score (test concentration not listed); 0.27% of 130,000 active; AID 504770;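 active = z-score under -2 on both plates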;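 note: wells of about 30 µL received 100 nL stock; score is relative to mean and SD of the test wells; the first replicate is given; strong numbers were not always called active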
Ba CapD inh – inhibitors of Bacillus anthracis CapD enzyme; 0.23% of 140,000 active; AID 492967; z-score (no concentration beside the values); purified CapD enzyme, fluorescence intensity read-out; stronger effect = lower value; some hits fall short of the stated cut;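 active = z-score under -4 in either of two replicates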;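 note: stock transfer was 100 nL into about 40 µL; score is relative to mean and spread of the plate; one replicate is shown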
Active calls of the source: *; i = inactive; · = not tested or not shown. Compounds were not picked by outcome; 0.37% or so of the library scored in one or more.

SMILES	AID504770	Ba CapD inh
CC(C#N)Sc1nnc(-c2cccnc2)n1C1CCCCC1C (stereo not drawn)	-0.55	·
Cn1c(C(=O)NCCN2CCCCCC2)cc2sccc21	1.25	-0.81
CC(C)=CC1C(CNC(=O)OCCc2cccc(C)c2)C1(C)C (stereo not drawn)	·	-0.56
O=C(NC1=NCCCCC1)c1cccc2ccccc12	-0.3	17.7
Cc1cc(C(=O)CSc2ccc(F)cc2)cc(C)c1OC(=O)N(C)C	·	-0.18
O=c1oc2ccccc2c2oc3cc(O)c(O)cc3c12	0.3	22.7
Cc1cc(NC(=O)NCc2ccccc2)no1	-0.95	-0.135
Cc1ncc2c(c1O)COC(C(C)C)OC2 (stereo not drawn)	-0.05	61.2
O=C(CN(C(=O)C1CSC(=O)C1)c1ccccc1F)NCc1ccc2c(c1)OCO2 (stereo not drawn)	-0.8	·
CC(C)c1ccc(C2CC(=O)Nc3ccccc3S2)cc1 (stereo not drawn)	·	-0.45
N#Cc1ccc(NC(=O)CN2C(=O)CCC2=O)cc1	0.45	·
Cc1nn(CCCC#N)c(=O)c2cc3sccc3n12	-0.25	·
CCOc1ccc(NC(=O)c2ccc(N3CC4CC(C3)c3cccc(=O)n3C4)c(NC(=O)CCN3CCOCC3)c2)cc1 (stereo not drawn)	·	-0.71
Cc1cc2c(NC(=O)CC(C)(C)CC(=O)O)cccc2nn1	-0.2	-1.16
COC(=O)C1=C(C)NC(C)=C(C(=O)OC)C1	0.45	0.53
Cc1cc(-c2c(C(=O)Sc3ccccc3)c(C)nn2-c2ccccc2)no1	0.7	9.32
CCOC(=O)c1cnc2c(F)cccc2c1Oc1ccccc1C(=O)OC	·	0.115
CCOc1ccc(-n2c(O)c(/C=N/Nc3nnc(C)c(=O)[nH]3)c3ccccc3c2=O)cc1	-0.35	·
O=C(O)CSc1nnc(COc2ccccc2)n1-c1ccccc1	-1.2	i
Cc1onc(-c2ccccc2)c1C(O)c1ccc(F)cc1 (stereo not drawn)	·	0.41

15 entries out of the list, ordered by molecular weight, high to low.
SMILES	AID504770	Ba CapD inh
CCOc1ccc(NC(=O)c2ccc(N3CC4CC(C3)c3cccc(=O)n3C4)c(NC(=O)CCN3CCOCC3)c2)cc1 (stereo not drawn)	·	-0.71
O=C(CN(C(=O)C1CSC(=O)C1)c1ccccc1F)NCc1ccc2c(c1)OCO2 (stereo not drawn)	-0.8	·
CCOC(=O)c1cnc2c(F)cccc2c1Oc1ccccc1C(=O)OC	·	0.115
Cc1cc(C(=O)CSc2ccc(F)cc2)cc(C)c1OC(=O)N(C)C	·	-0.18
O=C(O)CSc1nnc(COc2ccccc2)n1-c1ccccc1	-1.2	i
CC(C#N)Sc1nnc(-c2cccnc2)n1C1CCCCC1C (stereo not drawn)	-0.55	·
Cn1c(C(=O)NCCN2CCCCCC2)cc2sccc21	1.25	-0.81
Cc1cc2c(NC(=O)CC(C)(C)CC(=O)O)cccc2nn1	-0.2	-1.16
CC(C)c1ccc(C2CC(=O)Nc3ccccc3S2)cc1 (stereo not drawn)	·	-0.45
Cc1onc(-c2ccccc2)c1C(O)c1ccc(F)cc1 (stereo not drawn)	·	0.41
Cc1nn(CCCC#N)c(=O)c2cc3sccc3n12	-0.25	·
O=c1oc2ccccc2c2oc3cc(O)c(O)cc3c12	0.3	22.7
Cc1cc(NC(=O)NCc2ccccc2)no1	-0.95	-0.135
COC(=O)C1=C(C)NC(C)=C(C(=O)OC)C1	0.45	0.53
Cc1ncc2c(c1O)COC(C(C)C)OC2 (stereo not drawn)	-0.05	61.2

(cont.)
SMILES	AID504770	Ba CapD inh
O=C(NCCc1cnc[nH]1)c1cccs1	-0.7	-0.31
Cc1ccc2nc(COC(=O)c3ccc(OCc4c(C)noc4C)cc3)cc(=O)n2c1	-0.3	·
O=c1c(/C=N/NC2CCS(=O)(=O)C2)c(N2CCCCC2)nc2ccccn12 (stereo not drawn)	1.5	·
CCCC1C2CN(Cc3ccccc3)CC=C2C(C#N)=C(N)C1(C#N)C#N (stereo not drawn)	-0.55	·
CC(Oc1ccc(Cl)cc1Cl)C(=O)NCCCn1ccnc1 (stereo not drawn)	-0.85	0.275
CCc1nc(N2CCc3ccccc32)c2sc(=S)n(-c3ccccc3)c2n1	-0.4	-0.37
COc1ccc(-c2cc(C(=O)N3CCCCC3C)no2)cc1 (stereo not drawn)	-1	-1.27
Nc1nc(Cc2ccc(F)cc2F)no1	0.65	0.455
CCOc1ccccc1N/C(SCc1ccccc1Cl)=C(/C#N)C(=O)NCCc1ccc(OC)c(OC)c1	·	-0.175
O=c1cc(O)c2c(n1-c1ccccc1)CCCC2	2.05	-0.28
N#CCc1nnc2n1CCCCC2	-1.55	20.9
O=C1Nc2ccccc2C1=Nc1ccc(-c2nnc3n2CCCCC3)cc1	1.25	·
COc1cccc(-c2nc3sc4c(c3c(=O)o2)CCCC4)c1	2.15	-0.01
COc1ccc(N2C(=O)C3C(C2=O)C2(C)C=CC3(C)O2)c([N+](=O)[O-])c1 (stereo not drawn)	·	-0.31
Cc1ccc(OCC(=O)Oc2ccc(C)cc2)cc1	0	0.12
CCOC(=O)C1CCN(C(=O)CCCn2nc(-c3ccccc3)c3ccccc32)CC1	1.75	5.13
Cc1ccc(CN(Cc2cccnc2)C(=O)Nc2ccccc2)cc1	-0.5	0.23
N#Cc1nncn1CN1CCN(S(=O)(=O)c2cc(C(F)(F)F)cc(C(F)(F)F)c2)CC1	-0.45	·
O=C(O/N=C1\C(=O)N(Cc2cccc(C(F)(F)F)c2)c2ccccc21)C1CC1	·	0.15
CC(C)c1ccc(NC(=O)c2cccnc2Cl)cc1	-1.3	-0.17
O=C(O)c1ccc(N=Cc2c(-c3ccccc3)[nH]oc2=O)cc1	0.55	-2.88
CC1CCCCN1c1ccc(N)cc1C(N)=O (stereo not drawn)	-0.65	7.97
CN(C(=O)CN1C(=O)C2CC=CCC2C1=O)C(c1ccccc1)c1ccccc1 (stereo not drawn)	-1.15	·
N#Cc1c2c(c(=O)n3c1[nH]c1ccccc13)CCCC2	0.55	·
O=C(NC(Cc1c[nH]c2ccccc12)C(=O)O)c1ccccc1Cl (stereo not drawn)	-0.4	-0.375
O=C(O)CCN1C(=O)CCC1=O	0.1	·
COc1ccc2c(COC(=O)CC3Oc4ccccc4NC3=O)cc(=O)oc2c1 (stereo not drawn)	-0.2	·
COc1cccc(NC(=O)NC2CCCC2)c1	2	-0.27
Cc1ccc2c(c1)N(CCO)C(C)(C)CC2C (stereo not drawn)	·	-0.415
Cc1cc(C)c2c(=O)c(C(=O)O)coc2c1	0.9	0.515
CN1CCN(C(=O)Cn2ncc3ccccc32)CC1	-0.05	-1.36
CN(C)C(=O)Oc1nc(-c2cccs2)cc(C(F)(F)F)c1C#N	0.75	102
O=C(O)c1csc([N+](=O)[O-])c1	·	-1.83
O=C(CCC1=NS(=O)(=O)c2ccccc2N1)NCc1cccs1	0.2	0.505
CN(C(=O)Cn1c(=O)oc2cc(S(=O)(=O)N3CCCC3)ccc21)c1ccc(Br)cc1	0.5	0.29
O=C1CCSc2c1cccc2C(=O)NC1CCCCC1	0.65	-0.4
Cc1cc(=O)oc2ccccc12	-0.3	·
Cc1c(-c2ccnc(=S)[nH]2)sc2nc(C(F)(F)F)nn12	-0.2	-0.33
CCN1C(=O)S/C(=C\c2cn(-c3ccccc3)nc2C)C1=S	-0.6	·
O=C(Cn1c(=O)oc2cc(S(=O)(=O)NCc3ccccc3)ccc21)N1CCOCC1	1.65	-0.085
O=C(Cn1ccc(=O)[nH]c1=O)OCc1ccccc1C(F)(F)F	2.25	·
CCC(C)CCCNc1n[nH]c(=S)s1 (stereo not drawn)	0.3	·
Cc1noc(C)c1CC(=O)N(CC1CCCO1)c1nc(-c2ccc(Br)cc2)cs1 (stereo not drawn)	1.05	·
NC(=S)N/N=C/c1ccc(-c2ccc(S(=O)(=O)Nc3ncccn3)cc2)o1	0.1	·
N#Cc1cc(C(=O)c2ccccc2)[nH]c1N1CCN(c2ccccc2)CC1	·	0.875
O=C(c1ccccc1Br)N1CCN(C2=NS(=O)(=O)c3ccccc32)CC1	·	0.205
CCOC(=O)C1=C(C)N=c2s/c(=C\c3ccccc3OC)c(=O)n2C1c1ccc(OC)c(OC)c1 (stereo not drawn)	·	-0.23
O=C1CC(c2c(Cl)cccc2Cl)c2ccc3ccccc3c2N1 (stereo not drawn)	·	0
Cc1ccc(C(=O)N/C(=C\c2ccc(F)cc2)C(=O)Nc2c(C)n(C)n(-c3ccccc3)c2=O)cc1	·	-0.49
OC1N(CN2CCN(c3ccccc3F)CC2)c2ccccc2C12OCCCO2 (stereo not drawn)	1.3	·
Cc1nc(Cc2nnc(SCC(=O)c3ccc4[nH]c(=O)[nH]c4c3)o2)cs1	0.9	·
N#CCCn1nc(-c2ccccc2)cc1Nc1ccccc1NC(=O)c1ccccc1	0.4	·
COC(=O)C1C(=O)NC2(C)CC1c1ccccc1O2 (stereo not drawn)	·	-0.42
CCOc1ccccc1NC(=O)c1c(NC(=O)c2cc([N+](=O)[O-])ccc2Cl)sc2c1CCCCC2	·	-0.035
COc1ccc(S(=O)N2CCN(Cc3ccccc3)CC2)c(OC)c1C (stereo not drawn)	·	-0.475
CC(=O)Nc1ccc(Nc2ncnc3c2c(-c2ccccc2)cn3-c2ccc(F)cc2)cc1	·	8.56
CCCS(=O)(=O)N1CCN(c2ccc(OC)cc2)CC1	-0.7	-0.68
CSC1=NCCN1C(=O)c1cccs1	-0.5	·
C=CCn1c(SCc2cc(=O)[nH]c(C34CC5CC(CC(C5)C3)C4)n2)n[nH]c1=O	-0.05	0.645
Cc1cc(Nc2ccc(F)c(Cl)c2)nc(N)n1	·	0.66
(cont.)
SMILES	AID504770	Ba CapD inh
COc1cc(OC)nc(OC(Cc2ccncn2)c2ccc(C(F)(F)F)cc2)n1 (stereo not drawn)	·	0.145
O=S(=O)(Nc1nc2ccc(S(=O)(=O)N3CCCCC3)cc2s1)c1ccccc1	-1.05	-0.02
COc1ccc(C(O)CN2CC=C(c3ccc(N(C)C)cc3)CC2)cc1 (stereo not drawn)	-0.7	24.1
CC1CCN(C(=S)c2ccc(O)cc2)CC1	-1	-1.85
CCN(Cc1nnc(-c2ccccc2C)o1)c1ccccc1	-0.45	-0.765
CN=Cc1cc(-c2ccccc2)sc1S	-1.25	6.5
COc1ccc(C2=N/C(=C\c3ccc(-c4ccc(S(=O)(=O)Nc5ncccn5)cc4)o3)C(=O)O2)cc1	-0.25	·
C=CCn1c(CC(C)C)nnc1SCC(=O)c1ccc(Cl)cc1	-0.7	-0.54
COc1cccc(C2Nc3ccc4ccccc4c3C3=C2C(=O)CC(C)(C)C3)c1OC (stereo not drawn)	·	7.58
COc1ccccc1Nc1cc(C(=O)N2CCN(Cc3ccccc3)CC2)c2ccccc2n1	0.2	-0.78
CC(C)CN(C(=O)Nc1ccccc1)C1=NCC(C)S1 (stereo not drawn)	-1.4	-0.125
O=C1C2C3C=CC(O3)C2C(=O)N1c1cccc(Br)c1 (stereo not drawn)	·	-0.005
CCC(CC)C(=O)Nc1nnc(-c2ccccc2)s1	-1.3	i
COC(=O)CCc1cc(C(C)(C)C)c(OP(O)Oc2c(C(C)(C)C)cc(CCC(=O)OC)cc2C(C)(C)C)c(C(C)(C)C)c1	·	0.05
Cc1c(C(=O)Oc2cccc3cccnc23)oc2ccccc12	1	-0.605
COc1ccc(-c2noc(CN(Cc3ccco3)S(C)(=O)=O)n2)cc1	-0.75	·
O=C1c2cccc3cccc(c23)C(=O)N1CCCN1CCOCC1	·	78.6
O=C1CC(=Nc2ccc(F)cc2)NN1	-0.6	0.015
CC(C)[C@H](NC(=O)c1cc2ccccc2o1)c1nc2ccccc2[nH]1	0.85	·
CC1(C)CC(NC(=O)Cn2nc(-c3ccccc3)c3ccccc3c2=O)CC(C)(C)N1	0.55	0.13
CCOC(=O)CN(c1ccccc1)C1SC(=O)N(Cc2cccc(C(=O)O)c2)C1=O (stereo not drawn)	-0.25	-0.03
COc1ccc(Cc2nc3c4c(-c5ccccc5)c(-c5ccccc5)oc4ncn3n2)cc1	·	9.43
CC1C2=C(CC(C)(C)CC2=O)OC2=C1C(=O)CC(C)(C)C2	1.75	·
O=C(O)COCC(=O)NC1CCCCNC1=O (stereo not drawn)	-0.95	0.285
CCCN1CCC(N(C(=O)c2cccc(NC(=O)c3ccc(C(F)(F)F)cc3)c2)C2CC2)CC1	·	-0.215
COc1cccc(N2CCNCC2)c1	0.75	-1.15
COc1ccc(C2/C(=C(\O)c3ccccc3)C(=O)C(=O)N2CCN2CCOCC2)cc1 (stereo not drawn)	0	-0.94
OC1(C#CCN2CCCCC2)c2ccccc2C2CCCC21 (stereo not drawn)	-0.5	-0.48
CC(NC(=O)NC1(c2ccccc2)CC1)C12CC3CC(CC(C3)C1)C2 (stereo not drawn)	1.4	0.11
O=S(=O)(NC1CCCCC1)c1ccc(-c2cc(C(F)(F)F)no2)s1	-0.65	0.04
Cc1cc(C)nc(SCc2nc3ncccn3c2Br)n1	1.8	18.6
Cc1ccc(C(=O)NCc2ccccc2)cc1	-0.05	0.005
CC(c1ccccc1)N1C(=O)/C(=C/c2c(N3CCN(C)CC3)nc3ccccn3c2=O)SC1=S (stereo not drawn)	·	0.22
O=S(=O)(c1ccc2ccccc2c1)N1CCOCC1	-0.8	-0.175
Cc1nn(CCC#N)c2nc(-c3ccc(F)cc3)cc(C(=O)O)c12	1.2	·
CC1=C(C(=O)Nc2ccccc2)C(c2ccc(C(C)C)cc2)n2c(nc3ccccc32)N1 (stereo not drawn)	0.55	30.8
COCCOC(=O)c1c(C)oc2ccc(OC(=O)c3sc4ccccc4c3Cl)cc12	·	0.14
O=c1[nH]c2ccc(Cl)cc2c(-c2ccccc2)c1-[n+]1ccccc1	-0.7	-1.06
CN1C(=O)N(C)C2(c3ccccc3)N(N)C(N)=NC12c1ccccc1 (stereo not drawn)	·	-0.305
O=C(CCCc1ccccc1)Nc1cccc(-c2nn[nH]n2)c1	-0.85	-0.515
